Source: PubChem
Beta apoptosis = inhibitors of cytokine-induced beta cell apoptosis, primary screen, luminescence | 300,000 tested, 0.8% active | INS-1E cytokine-induced death, ATP luminescence, 48 h; percent of positive-control rescue, neutral wells zero | AID 435005, 2010 | protection from apoptosis, % (concentration not given with the values);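 active = all replicates at 75% or more, or half of them and the mean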;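 also: 0% = cytokine-treated negative control wells and 100% = positive control rescue; higher means more ATP so stronger rescue from cytokine killing; wells of about 40 µL received 100 nL stock; the first replicate is given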
Bfl-1 A1 inh = caspase 3/7 activation in MEF A1-2A-BIM cells, primary screen, A1 inhibitor project, cell-based, luminescence, HTS; Caspase-Glo 3/7 luminescence, 3 h; percent of clofoctol response, vehicle zero; caspase activation, % (concentration not given with the values); 330,000 tested, 0.066% active;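 active = over half of replicate activation scores above 10%, or exactly half above 10 with the replicate mean above 10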;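 also: wells of about 30 µL received 50 nL stock; many hits fall short of the cut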
ALR H2O2 inh = inhibitors of human ALR sulfhydryl oxidase, primary screen, biochemical, H2O2 detection, HRP-luminol luminescence, single point. FAD-linked sulfhydryl oxidase ALR (Homo sapiens), P55789. purified ALR, DTT oxidation. inhibition, % (concentration not given with the values). 290,000 tested, 3.8% active;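 active = mean and each replicate at 75% or more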;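 also: stock transfer was 7.5 nL into about 7.5 µL; 0% = neutral wells and 100% = wells with inactivated enzyme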
Target sequence (P55789 whole entry, looked up): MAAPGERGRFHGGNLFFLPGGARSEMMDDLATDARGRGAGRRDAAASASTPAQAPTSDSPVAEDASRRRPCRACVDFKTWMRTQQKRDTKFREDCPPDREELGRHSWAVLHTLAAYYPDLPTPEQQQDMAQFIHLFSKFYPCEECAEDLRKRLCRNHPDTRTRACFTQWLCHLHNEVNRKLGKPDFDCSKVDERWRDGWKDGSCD
LANA-H2A inh = blockers of LANA interaction with H2A/H2B – biochemical, FP readout, HTS, primary screen | cell-free LANA-H2A/H2B peptide, fluorescence polarization | Protein LANA1 (Human herpesvirus 8 type P (isolate GK18)), Q9QR71 | inhibition, % (test concentration not listed) | AID 2629, 2010 | 320,000 tested, 0.6% active; in the data active = inhibition mostly above about 10%, no sharp cut-off; inactive = mostly below about 6.7%;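 also: stock transfer was 7.5 nL into about 10 µL; 0% = median of vehicle wells and 100% = median of positive control wells; one replicate is shown; the record names a cut of 25% in any replicate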
Beta2AR agonist = beta2AR agonists driving receptor internalization, primary screen, cell-based, FAP fluorogen, flow cytometry | Beta-2 adrenergic receptor (Homo sapiens), P07550 | Am2.2-beta2AR cells; reference of the scale not given here | response, % (test concentration not listed) | 340,000 tested, 0.43% active;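 active = response above a set limit, near 3 SD of response in nonfluorescent compounds, cut at about 42% in these data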;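 also: stock transfer was 100 nL into about 11 µL; a reference agonist was the positive control; negative values mostly stem from fluorescent compounds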
Target sequence (P07550 whole entry, looked up): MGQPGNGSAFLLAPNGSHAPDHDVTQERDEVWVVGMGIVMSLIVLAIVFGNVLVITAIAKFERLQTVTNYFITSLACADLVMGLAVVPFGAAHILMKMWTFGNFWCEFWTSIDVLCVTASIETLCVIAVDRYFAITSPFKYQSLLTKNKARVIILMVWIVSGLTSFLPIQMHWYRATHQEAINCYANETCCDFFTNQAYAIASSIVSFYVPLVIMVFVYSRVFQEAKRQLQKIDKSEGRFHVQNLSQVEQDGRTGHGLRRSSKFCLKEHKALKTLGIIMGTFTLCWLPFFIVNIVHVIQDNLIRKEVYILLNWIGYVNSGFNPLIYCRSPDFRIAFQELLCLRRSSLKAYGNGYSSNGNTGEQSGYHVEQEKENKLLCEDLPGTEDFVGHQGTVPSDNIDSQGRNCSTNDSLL
Ecoli rRNA inh = reduced GFP signal of wild-type E. coli, primary screen, bacterial rRNA inhibitor project, GFP/RFP fluorescence, OD600, single point | E. coli WT GFP vs humanized-ribosome RFP mutants, 24 h; hits give low values; DMSO median 0, no signal -100 | GFP signal change (wild-type ribosome), % (concentration not given with the values) | 350,000 tested, 1.6% active | AID 720706, 2013;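 active = significant combined selectivity score with lowered wild-type GFP, culture density cut under 30%, mutant RFP and density less affected; inactive = any of these conditions unmet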; also: one replicate is shown; some compounds called inactive have numbers as strong as hits
Calb FLC = C. albicans growth inhibition with fluconazole, primary screen, CaCi-2 strain, Alamar Blue fluorescence | C. albicans CaCi-2 (fluconazole-resistant clinical isolate) + fluconazole, 48 h | AID 1979, 2009 | 300,000 tested, 0.57% active | growth inhibition, % (concentration not given with the values);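 active = most replicates above 75%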;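 also: all wells also contain fluconazole at 8 µg/ml as a sub-toxic cotreatment; 0% = median of DMSO wells and 100% = median of geldanamycin control wells; wells of about 8 µL received 7.5 nL stock; the first replicate is given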
T cruzi inh = inhibitors of intracellular T. cruzi growth, primary screen, luminescence, NIH3T3 host cells. T. cruzi beta-gal in NIH3T3, 90 h. inhibition, % (concentration not given with the values). 300,000 tested, 1.4% active. AID 1885, 2009;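 active = mean inhibition across valid replicates above about 55%, limit read from the data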;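 also: signal also drops with host cell toxicity which is not excluded here; 0% = plate median of DMSO wells and 100% = zero luminescence signal; higher percent means less beta-gal luminescence so fewer parasites; stock transfer was 50 nL into about 50 µL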
Ecoli rRNA inh OD600 = recorded beside Ecoli rRNA inh, whose call it bears; OD600 change, %; measured here: OD600 growth;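 optical density of the mix in the first replicate; 0 = DMSO median and -100 = no signal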
Ecoli rRNA inh RFP = second read-out of Ecoli rRNA inh, no call of its own (marks repeat the call); RFP signal change, %; measured here: RFP humanized mutant strains;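 first replicate; 0 = DMSO median and -100 = no signal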
Starred values were filed as active, the others as inactive; nt = no result given; & = joins results of further samples.

SMILES,Beta apoptosis,Bfl-1 A1 inh,ALR H2O2 inh,LANA-H2A inh,Beta2AR agonist,Ecoli rRNA inh,Ecoli rRNA inh OD600,Ecoli rRNA inh RFP,Calb FLC,T cruzi inh
CC(C)(C)SCCNS(=O)(=O)c1ccccc1,nt,0.7,-6.7,2.7,16.0,-0.7,5.1,0.6,0.7,4.0
CCCc1cc(=S)n2c([nH]c3ccccc32)c1C#N,6.2,-1.8,16.6,6.6,17.3,nt,nt,nt,73.2,-26.0
O=C(O)Cn1cc(C(=O)C(F)(F)F)c2ccccc21,-1.8,1.0,-28.9,1.0,2.3,12.7,12.4,0.6,-16.4,0.4
COc1ccc(OC)c(S(=O)(=O)N/N=C\c2ccc3c(c2)OCO3)c1,-4.7,-3.2,2.5,-2.7,3.6,4.1,1.2,1.0,-4.8,-2.6
CCOCCn1c(C)c(C(=O)OCC)c2cc(O)c3ccccc3c21,3.4,-0.1,nt,-0.9,0.7,-8.4,-8.2,-2.0,nt,nt
O=C(CCCOc1ccccc1)Nc1cccc([N+](=O)[O-])c1,-1.3,2.0,-7.3,-4.9,-1.0,-13.8,-7.1,10.4,-6.6,-15.3
CCOC(=O)/C(C#N)=C\N(C)C,-5.5,0.0,1.7,4.2,7.4,nt,nt,nt,-2.1,-9.6
COc1ccc(C(=O)/C=C/c2ccccc2)c(O)c1,2.9,-1.8,53.1,-3.0,-4.3,nt,nt,nt,-0.5,-16.8
C=CCN1C(=O)C(CC(=O)Nc2ccccc2)SC1=Nc1c(C)n(C)n(-c2ccccc2)c1=O (configuration not stated),-6.3,0.7,-2.3,-0.8,-1.0,nt,nt,nt,-0.8,-6.5
CC1(C)Cc2c(sc3nc(SCC(=O)NCc4ccccc4)n(-c4ccccc4)c(=O)c23)CS1,-5.7,0.4,nt,-4.0,-2.9,nt,nt,nt,27.0,21.7
CCCn1c(=O)c2ccccc2n2c(SCc3c(C(=O)OCC)oc4ccccc34)nnc12,-23.6,1.1,-2.2,3.8,-3.8,nt,nt,nt,6.5,12.1
O=c1[nH]cc(F)c(=O)[nH]1,nt,1.1,-1.9,-6.3&-0.3,-9.0,12.6,-8.4,3.0,nt,30.0
Cc1ccc2oc(=O)n(Cc3ccc(OC(C)C)cc3)c2c1,-4.9,0.4,3.4,-0.2,7.5,-37.0,-59.8,-8.4,-16.1,32.4
CCOC(=O)CNC(=O)CSc1ncccc1-c1nc2ccccc2[nH]1,-2.7,0.6,-9.8,2.2,4.7,-0.3,4.3,0.1,4.6,2.6
CC(=O)Nc1ccc(S(=O)(=O)NCCC(=O)OCc2ccc([N+](=O)[O-])cc2)cc1,nt,1.5,2.4,1.5,2.8,-11.0,-6.2,-1.9,2.0,-20.5
OCCOCCNc1ncnc2c1cnn2-c1ccccc1,-2.8,-0.3,nt,1.4,1.7,nt,nt,nt,2.6,-21.4
O=C(CSc1nnc(CNc2ccc(F)cc2)o1)N1c2ccccc2Sc2ccccc21,-12.9,-0.6,-2.5,0.9,-6.5,nt,nt,nt,8.0,-3.0
Cc1cccc(C(=O)Nc2ccc3c(c2)ncn3C)c1,-2.1,-0.4,-3.1,4.4,-2.8,-1.6,7.7,-1.1,-6.1,-4.1
O=C(Nc1ccccc1F)c1ccc2c(c1)OCO2,4.9,-8.0,-3.3,-1.4,3.7,12.4,10.7,0.0,-5.7,-11.5
CC(OC(=O)c1ccc(S(=O)(=O)N(C)C)cc1)C(=O)Nc1ccc(Cl)cn1 (configuration not stated),0.0,-0.4,17.0,12.1*,0.6,-5.0,-31.8,-3.7,3.1,-9.2
c1ccc(OCCCc2nc(-c3ccccn3)no2)cc1,-0.1,-0.1,-5.9,1.6,8.5,nt,nt,nt,6.1,-5.6
CCN(C(=O)c1cccc(Br)c1)c1ccccc1,-10.2,0.7,-16.9,-1.9,5.8,-2.1,-0.2,-2.2,-19.6,-0.9
O=C(NCCc1ccc(C(F)(F)F)cc1)C1CCC(=O)N(CCCN2CCCC2=O)C1 (configuration not stated),-1.5,-0.1,-4.1,-0.1,-5.6,12.9,17.8,0.3,-11.2,-8.6
CCc1ccc(O)c(N=Cc2cccc(C)c2O)c1,-2.8,0.0,7.4,-2.8,-50.5,4.5,-5.2,0.8,2.9,-15.1
COc1ccc(C2=NC(C)(C)Cc3cc(OC)c(OC)cc32)cc1OC,nt,0.2,-16.4,2.6,6.7,16.5,10.2,-2.7,-0.8,-18.5
CCOC(=O)C1(CC/C(C)=N\NC(N)=O)CC(C)OC1=O (configuration not stated),-18.5,1.0,1.8,3.7,-0.8,nt,nt,nt,13.8,-9.1
Cc1ccccc1CC1(CO)CCCN(C(=O)c2cccc(Cl)c2)C1 (configuration not stated),-7.1,0.6,8.7,-1.5,0.8,-24.1,-20.1,-8.0,-6.0,7.3
O=C(c1ccc2c(=O)n(Cc3ccc4c(c3)OCO4)c(=O)[nH]c2c1)N1CCN(c2ccccc2)CC1,-4.7,0.1,-3.2,3.9,-8.1,10.4,18.4,-0.5,-6.1,-1.8
CCOc1ccc(OCC)c(-c2c(=O)n(OCc3ccc(C(C)(C)C)cc3)c3ccccc3[n+]2[O-])c1,16.0,-0.3,-6.4,-6.9,3.3,5.0,10.4,0.4,2.4,10.5
Cc1ccc(OCC(=O)N2CCC3(CC2)CC(=O)c2ccccc2O3)cc1,nt,-0.3,1.1,-2.0,-5.3,0.8,-0.3,2.6,1.8,-5.5
O=c1cc(-c2ccccc2)c2c(O)cc(O)cc2o1,0.9,0.0,47.2,1.0,12.2,-23.1,-52.4,8.2,-0.1,3.1
COc1cccc(NC(=O)Cn2c(CCC(=O)O)ccc2-c2cccs2)c1,-6.9,1.5,50.7,1.3,2.3,-2.5,-5.0,1.5,-1.2,-5.3
COc1ccc(CCNC(=O)/C=C/c2ccco2)cc1OC,-4.0,-0.2,3.5,-3.6,-2.6,7.0,10.1,10.9,19.6,-27.9
Cc1ccc(NC(=O)c2nc[nH]c2C(=O)NCc2ccccc2)cc1,-0.7,1.4,0.2,-3.2,-7.0,15.7,-0.7,-3.4,nt,nt
COc1ccc(CCNC(=O)C(=O)NCC2OCCN2S(=O)(=O)c2ccc(Cl)cc2)cc1OC (configuration not stated),4.9,-0.3,nt,6.5,-11.0,1.7,-18.7,-4.5,-4.5,-4.7
Cc1nn(CC#N)c(=O)n1-c1ccccc1F,3.6,0.3,-7.7,-2.5,2.6,nt,nt,nt,-2.0,0.3
Cc1nnc(SCC(=O)N2c3ccccc3C(C)(c3ccccc3)CC2(C)C)s1 (configuration not stated),-1.2,1.4,-1.6,1.0,-2.6,nt,nt,nt,0.2,11.1
CC(=O)Nc1nnc(COc2ccc(Cl)cc2)s1,-8.0,-0.5,-3.6,5.6,0.8,11.1,5.2,5.1,-0.9,3.9
COc1ccc(-c2nc(CS(=O)CC(=O)N3CCN(C)CC3)c(C)o2)cc1OC (configuration not stated),-4.7,-0.2,98.9*,-4.1,1.6,5.5,9.1,-2.3,1.2,1.2
O=C(CN(CCO)c1ccccc1)Nc1ccc(Cl)c(S(=O)(=O)N2CCOCC2)c1,4.5,-0.5,8.5,-1.6,-1.6,-16.7,-20.5,0.5,4.3,-1.0
O=C(COC(=O)c1cc(S(=O)(=O)N2CCOCC2)ccc1F)Nc1c(Cl)cccc1C(F)(F)F,4.3,1.3,-4.3,-27.6,1.4,5.1,1.2,2.4,-4.0,-9.8
Cc1ccc(-c2cc(C(F)(F)F)n3nc(C(=O)Nc4c(C)n(C)n(-c5ccccc5)c4=O)cc3n2)cc1,0.0,-0.5,-3.4,2.7,-3.9,nt,nt,nt,-0.4,6.1
Cc1ccc(CNC(=O)C2C3C=CC(C3)C2C(=O)O)cc1 (configuration not stated),-11.5,-0.1,-8.1,2.7,-2.6,nt,nt,nt,0.5,-16.2
COc1cccc(C(=O)NCc2cn3ccsc3n2)c1,-2.5,-0.2,4.7,3.4,-12.1,0.1,2.3,-6.4,0.6,-17.2
COc1ccc(/C=N/NC(=S)SC)cc1OC,12.3,-0.1,-7.2,4.4,3.2,nt,nt,nt,-2.0,-23.5
N#CC1=C(N)OC2=C(CCc3ccccc32)C1c1ccccc1Cl (configuration not stated),7.9,-0.4,-13.5,0.0,35.4,-21.9*,-9.2*,-0.2*,2.6,2.2
CN1c2ccccc2C(C)(C)C12CC(c1ccc(S(=O)(=O)N3CCCCC3)cc1)=NO2 (configuration not stated),11.9,1.0,-0.7,0.1,-5.5,nt,nt,nt,1.8,3.5
COC(=O)c1ccc(NC(=O)CC(=O)Nc2ccc(C(=O)OC)cc2)cc1,-0.1,0.5,-6.4,-6.0,2.1,4.6,16.5,3.3,-8.7,-19.1
CC(C)[C@H](NC(=O)N1CC(=O)Nc2ccccc21)C(=O)N[C@@H](C(=O)O)c1ccccc1,-4.2,0.0,-0.3,-2.0,-1.1,-0.6,12.8,-1.3,-0.2,-23.3
COc1ccc(-c2c3c(=O)n(C)c(=O)n(C)c3cn2-c2cccc(OC)c2)cc1,-1.5,-0.4,-6.0,-0.4,-19.1,1.1,-2.0,0.5,9.7,2.8
O=C(CSc1n[nH]c(=O)n1C1CC1)Nc1ccc(F)c(Cl)c1,-20.8,0.6,-2.3,-1.0,9.8,-7.7,-13.9,-0.9,nt,nt
O=C(NC1CCS(=O)(=O)C1)/C(=C\c1ccco1)NC(=O)c1ccccc1 (configuration not stated),nt,0.5,-9.3,-1.4,-4.0,0.2,-5.3,5.4,3.6,2.9

These rows are one share of the data; count on the stated rates, not on these rows.
